Assay outcomes as filed in PubChem BioAssay.
TRPML1 inh – qHTS for Inhibitors of the Human Mucolipin Transient Receptor Potential 1 (TRPML1); Mucolipin-1 (Homo sapiens), Q9GZU1; TRPML1-inducible cells, Ca2+ dye fluorescence, FDSS; hits give low values; inhibition of EC80 agonist-evoked calcium signal; hit rate 0.02% among 390,000; activity change, negative = inhibition, % (test concentration not listed); in the data active means activity change below about -50%; inconclusive means about -30% to -50%; inactive means above about -30%;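 further: stimulus is agonist 54-4 at its EC80 concentration; on the % scale 0 is the no-effect control and ±100 the full control effect; compound concentration not given in the record; the text of the record puts the active cut at -80%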
Target sequence (Q9GZU1 whole entry, looked up): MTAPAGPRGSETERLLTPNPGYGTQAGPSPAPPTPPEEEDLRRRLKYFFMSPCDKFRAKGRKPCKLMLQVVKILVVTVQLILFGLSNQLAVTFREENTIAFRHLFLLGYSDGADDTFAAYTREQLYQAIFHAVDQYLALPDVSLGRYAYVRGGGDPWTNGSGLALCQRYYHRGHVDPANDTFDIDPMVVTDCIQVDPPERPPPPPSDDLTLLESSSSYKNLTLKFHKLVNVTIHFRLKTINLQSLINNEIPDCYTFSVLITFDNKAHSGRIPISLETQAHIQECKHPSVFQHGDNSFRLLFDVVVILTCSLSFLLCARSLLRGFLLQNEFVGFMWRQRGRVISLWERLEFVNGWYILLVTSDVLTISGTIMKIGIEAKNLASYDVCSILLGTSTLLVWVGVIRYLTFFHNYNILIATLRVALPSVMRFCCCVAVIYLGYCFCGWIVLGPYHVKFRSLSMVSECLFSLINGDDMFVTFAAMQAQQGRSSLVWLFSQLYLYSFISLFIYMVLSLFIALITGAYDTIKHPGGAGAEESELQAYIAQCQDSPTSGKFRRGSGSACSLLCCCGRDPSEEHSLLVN
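TRPML1-DL cells, Tet-induced overnight (~16 h, 37 °C) at 1,500 cells/well, were loaded with Ca8 no-wash dye plus quencher for 45-90 min at room temperature. Compounds were pinned during FDSS kinetic reading; agonist 54-4 at EC80 (4 uM final) then added.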
PINK1 expr mod – A Quantitative High throughput Screen to Identify Chemical Modulators of PINK1 Expression. PINK1 immunofluorescence, high-content cytometry, 24 h. hit rate 0.2% among 410,000. Potency, µM (series often up to 76.6 µM), inactives show at the top dose activation (PINK1 increase), most hits filed as activators; active = well fitted activation curve with a large enough effect; inconclusive = small, poorly fitted or top-dose-only effect; inactive = flat fitted curve, though single readings scatter; cell line not stated here;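 further: potency means the concentration at half of the fitted maximal effect; % of control where 0% means no effect; nearly all actives have a fitted effect of over 65% in size; a mitochondrial uncoupler was the plate control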
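Decision-based qHTS: stable cells, 24 h exposure to five compound concentrations, CCCP as control. Fixed cells stained for PINK1 plus nuclear, mitochondrial and cell markers, cytometer read.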
TRPML1 agonist – qHTS for Agonists of the Human Mucolipin Transient Receptor Potential 1 (TRPML1); TRPML1-expressing cells, Ca2+ dye fluorescence, FDSS; host cell line not named in the record; reference of the full effect not given here; activation, % (concentration not given with the values); hit rate 0.12% among 410,000; AID 624414, 2012; in the data active = activation above about 50%; inconclusive = about 30% to 50%; inactive = below about 30%; further: 0% is about no effect; the text of the record puts the active cut at 80%
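In this qHTS format, compounds were pin-transferred onto Ca8-dye-loaded TRPML1-DL cells induced with Tet overnight, and intracellular Ca2+ fluorescence was recorded kinetically for 110 s after a 10 s baseline. A subsequent 4uM final 54-4 (EC80) addition followed by a second 110 s read served as the antagonist phase.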
Sfp PPTase inh – qHTS Assay for Inhibitors of Bacillus subtilis Sfp phosphopantetheinyl transferase (PPTase); Biochemical Sfp PPTase activity, qHTS; Potency, µM, for the others: max response, negative = inhibition, usual class: inhibitors; hit rate 3.5% among 310,000; AID 1490, 2009; active means well fitted inhibition curve with a large enough effect; inconclusive means small, poorly fitted or top-dose-only effect, or another doubt; inactive means no such curve, though single readings can be large or run the other way;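 further: the enzyme is Sfp with the accession as filed and its product quenches rhodamine fluorescence; potency means the concentration at half of the fitted maximal effect; 0% = enzyme reaction without inhibitor and -100% = no enzyme wells; top concentration of the series not given in the record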
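Step 1, compound plus 15 nM Sfp-PPTase, 15 min, room temperature. Step 2, add rhodamine-CoA (5 uM) and BHQ-2-YbbR (12.5 uM). Step 3, read 525/598 nm fluorescence at 0 and 30 min.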
Menin-MLL FL inh – qHTS Assay for Inhibitors Targeting the Menin-MLL Interaction in MLL Related Leukemias: Competition With Fluorescein Labeled MLL-derived Peptide; Fluorescence polarization, fluorescein-MLL peptide displacement from menin; FP activity change, % at 61.4 µM; 290,000 tested, under 10 active; inconclusive = falling polarisation curve, or a change in total fluorescence; inactive = total fluorescence flat and polarisation flat or rising; no compound was filed as active; the % refers to the polarisation; negative = inhibition;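 further: % of control where 0% means no effect; inhibitors lower the polarisation; unlabelled MLL peptide was the positive control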
ClpP mod – qHTS Assay for Activators of ClpP. Potency, µM (top dose mostly 57.5 µM), without a hit: top-dose activity change, negative = active. purified B. subtilis ClpP, FRET peptide cleavage, 20 min. hit rate 1.9% among 340,000. ATP-dependent Clp protease proteolytic subunit (Bacillus subtilis (strain 168)), P80244; active = well fitted falling curve with a large enough effect; inconclusive = small, poorly fitted or top-dose-only effect; inactive = no such curve, though single readings can be large or run the other way; further: potency means the concentration at half of the fitted maximal effect; the source files actives as falling curves though it sought activators and does not explain the sign; nearly all actives have a fitted effect of over 65% in size; many hits overshoot -100%
Target sequence (P80244 whole entry, looked up): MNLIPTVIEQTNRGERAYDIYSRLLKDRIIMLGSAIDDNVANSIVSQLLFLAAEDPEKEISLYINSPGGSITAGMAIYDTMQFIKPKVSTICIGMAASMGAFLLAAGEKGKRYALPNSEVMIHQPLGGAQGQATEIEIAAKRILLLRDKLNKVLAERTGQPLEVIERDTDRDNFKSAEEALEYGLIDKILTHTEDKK
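Buffer: 100 mM Tris/HCl pH8, 100 mM KCl, 0.05% low protease BSA, 2.5% glycerol, 0.01% Tween-20. ClpP 10 microg/mL final; 20 min RT; delta FRET normalized to ADEP and DMSO controls.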
TRPV1 potentiator – HTS Assay for Compounds that Act as Potentiators of the Vanilloid Receptor 1. TRPV1-expressing cells, Fluo-8 calcium influx, capsaicin EC20 potentiation; host cell line not named in the record; control for the full effect not named in the record. Transient receptor potential cation channel subfamily V member 1 (Homo sapiens), Q8NER1. hit rate 0.02% among 320,000. potentiation, % at 8.33 µM; active means potentiation above 80%; inconclusive means 30% to 80%; inactive means below 30%; further: 0% is about no effect
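Cells expressing TRPV1 were dye-loaded with Fluo-8 and read kinetically: 10 s baseline, 3 min after compound (agonist portion), then 2 min after EC20 capsaicin (allosteric enhancer portion). Calcium-bound dye fluorescence at 480/520 nm.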
* marks the source's active call; other numbers are inactive results; ? = inconclusive; . = no result given; & = joins results of further samples; [ ] = dose if it differs, or a comment.

SMILES | TRPML1 inh | PINK1 expr mod | TRPML1 agonist | Sfp PPTase inh | Menin-MLL FL inh | ClpP mod | TRPV1 potentiator
CCCCn1c(CNC(=O)C23CC4CC(CC(C4)C2)C3)nnc1SCC(=O)Nc1ccccc1 | -10.2 | 0.2% | 0.3 | . | . | -1.1% | .
Clc1ccccc1OCc1nnc(-c2ccccc2)o1 | -11.3 | 2.9% | 3.3 | 13.0% | 4.2 | 1.1% | 5.3
COc1ccccc1Cn1c(/C=C/c2ccccc2)nc2ccccc21 | 2.1 | ? | 1.6 | -18.4% | 7.5 | 5.2% | 1.3
C(#CCN1CCOCC1)COCCOC(c1ccccc1)c1ccccc1 | -0.6 | 1.5%[38.3 µM] | 1.6 | 0.5% | 3.5 | -2.1% | -5.4
COc1cc(C(=O)O/N=C2\C=CC(=O)C(C)=C2)cc(OC)c1OC | 10.1 | -0.7% | 0.4 | -3.9% | 0.0 | 9.0% | 4.9
CCc1noc2nc(C)n(CC(=O)O)c(=O)c12 | 56.2 | -0.3% | -0.6 | . | . | 1.5% | .
CCC1CCCCN1C(=O)CSc1nc(N)c(NC(=O)c2ccc(OC)c(OC)c2)c(=O)[nH]1 (configuration not stated) | -2.7 | 0.7% | 0.3 | 3.9% | -2.3 | -0.3% | 8.0
COc1cccc(/C=N/Nc2nc3ccccc3n3cnnc23)c1O | 15.5 | 6.9% | 1.3 | 17.6% | -1.4 | -0.3% | 1.3
CC(=O)c1cccc(NC(=O)c2cc(-n3cnnc3)ccc2Cl)c1 | 2.8 | 0.9% | -0.6 | 0.7% | -0.5 | -6.5% | 12.4
Cc1ccc(C)c(N2CCN(C(=O)c3cc(S(=O)(=O)N4CCOCC4)cn3C)CC2)c1 | 6.9 | -0.7% | -0.1 | -2.4% | -4.5 | 0.7% | 11.8
CNc1cc(C(=O)O)nc2ccccc12 | . | 6.6% | 9.6 | . | . | -5.2% | .
CC1(C(=O)NS(=O)(=O)c2ccc(Cl)cc2)CCN1C(=O)Cc1ccsc1 (configuration not stated) | . | -0.1% | -0.7 | . | . | -1.4% | .
O=C1Nc2cc(Cl)c(Cl)cc2N(O)N1c1ccc(Cl)cc1 | -12.1 | -1.2%[38.3 µM] | 0.9 | 5.5% | 0.0 | -1.8% | 15.6
CCOc1ccc(N2C(=O)C3ON(c4ccccc4)C(c4cccs4)C3C2=O)cc1 (configuration not stated) | 5.1 | 2.5% | -0.2 | 5.1% | 0.6 | . | -14.5
O=S(=O)(NCCC1CC1(Cl)Cl)c1ccc(Cl)cc1 (configuration not stated) | -20.9 | 3.6% | 0.9 | 0.1% | -3.4 | -0.5% | -4.1
COc1ccc(N(CC(=O)Nc2nc3ccc(C)cc3s2)S(=O)(=O)c2c(C)nn(C)c2C)cc1 | -7.4 | 2.6% | -0.7 | 0.3% | 4.7 | -0.9% | -65.3
O=C(Nc1ccc(N2CCOCC2)cc1)C1CCN(C(=O)OCc2ccccc2)CC1 | -6.5 | 1.9% | -0.8 | 18.7% | 2.1 | -1.1% | -20.0
COc1ccccc1NC(=O)Nc1nc(CC(=O)Nc2cc(F)ccc2F)cs1 | 33.7 | 0.4% | -0.8 | . | . | -23.9% | -14.1
CC1=C(C(=O)Nc2cccnc2)C(c2ccccc2)n2nc(SCc3ccccc3)nc2N1 (configuration not stated) | -9.5 | 1.4% | 0.5 | . | . | -1.6% | .
CCCCn1c(N)c(N(CCOC)C(=O)c2cc(=O)[nH]c3ccccc23)c(=O)[nH]c1=O | -0.9 | 1.0% | 1.9 | . | . | -2.2% | -0.6
COc1ccc(CCn2c3c(c(=O)[nH]c2=O)C(NC(=O)c2ccccc2F)(C(F)(F)F)C(=O)N3)cc1OC (configuration not stated) | 2.0 | 0.8% | 0.1 | . | . | -1.2% | .
O=C(COC(=O)C(Cc1c[nH]c2ccccc12)NC(=O)c1ccc(Br)cc1)c1ccc(Cl)cc1 (configuration not stated) | 19.9 | -1.3% | 1.4 | . | . | 1.2% | .
COc1cccc2c3c(c(=O)[nH]c12)CCC(C)(C)O3 | -5.4 | 1.4% | 0.0 | 2.7% | -0.8 | -11.8% | -8.6
COc1ccc(CN2C(=O)CSC2c2ccccn2)cc1 (configuration not stated) | -18.8 | 1.3% | 0.2 | -9.0% | -0.1 | -1.2% | 12.7
COc1ccc(CCNC(=O)C2=COCCO2)cc1 | 24.3 | -0.2% | -1.8 | 15.1% | 4.0 | -2.6% | -5.0

Further records
SMILES | TRPML1 inh | PINK1 expr mod | TRPML1 agonist | Sfp PPTase inh | Menin-MLL FL inh | ClpP mod | TRPV1 potentiator
COc1ccc([N+](=O)[O-])cc1N/C(=N/S(=O)(=O)c1ccccc1)c1ccccc1 | 45.2 | 0.5% | 1.8 | -1.0% | -4.6 | . | 2.8
Cc1ccc2c(c1)c1c3n2CCN(C=O)C3CCC1 (configuration not stated) | -8.5 | -0.2% | 0.1 | 1.6% | 4.6 | ? | 1.7
Cn1nnnc1SCCCNCc1ccc(-c2ccc(F)c(Cl)c2)o1 | -0.6 | -0.3% | -0.5 | . | . | 0.0% | .
Cc1ccc(OCc2nnc(SCC(=O)CC(=O)Nc3ccccc3)o2)cc1 | 22.1 | -2.3% | 2.3 | 22.2% | -2.4 | 0.3% | -15.1
Nc1c(C=C2C=CC(=O)C=C2)c(=O)nc2sc(CC(=O)N3CCCC3)nn12 | -7.1 | -0.1% | 0.2 | 1.8% | . | -0.6% | -7.3
Cc1c(/C=N/n2cnnc2)c2ccccc2n1C | 3.9 | -3.5% | 0.3 | -4.8% | 1.6 | -4.4% | 7.9
C=CCNC(=S)N1CCN(c2ccc([N+](=O)[O-])cc2)CC1 | -14.5 | -1.7% | -0.6 | 18.7% | 1.1 | -7.8% | 6.4
O=S(=O)(NCC1CC1)c1ccc(F)c(Cl)c1 | 19.9 | 7.4% | 0.7 | 11.4% | -1.2 | . | -1.6
Nc1ccc(C(=O)O)c(O)c1 | -20.7&-0.6&5.1 | 2.1%&0.9%&0.5% | 0.2&0.5&0.0 | 10.8%&-8.8%&-4.8%&5.6%&7.3% | -5.4&-2.3&5.0&-3.0&-3.5 | ? | -14.5&6.0&-11.0&5.7
CCCCCCCCNC1=CC(=O)CC(C)(C)C1 | -10.6 | 1.8% | 0.9 | -8.0% | 12.8 | . | -6.0
O=C(CC1CCCC1)NCCS(=O)(=O)N1CCN(c2ccc(F)cc2)CC1 | 0.7 | 0.7% | 0.0 | . | . | -2.1% | -0.1
COC(=O)c1nnn(CC(=O)Nc2ccc(Br)c(C)c2)c1N | 18.3 | 1.2% | -0.5 | . | . | -0.2% | .
COc1ccc(C(CNC(=O)COc2ccccc2OC)N(C)C)cc1OC (configuration not stated) | -4.1 | -0.8% | 0.8 | -1.4% | -1.4 | 0.8% | -9.1
CN1C(=O)c2cccc(NCCCCCCN3C(=O)c4ccccc4C3=O)c2C1=O | -8.8 | ? | -0.4 | -0.1% | ? | 20.8% | 16.4
CCN(CC)S(=O)(=O)c1ccc2[nH]c(=O)cc(C(=O)Nc3ccc(C)c(S(=O)(=O)N(CC)CC)c3)c2c1 | 9.0 | 1.3% | -0.5 | -6.2% | 5.7 | -1.4% | 5.7
O=C(CO)c1c[nH]c2ccccc12 | . | -1.1% | -0.7 | . | . | -0.1% | .
O=C(O)c1ccc(-c2ccco2)n1Cc1ccccc1 | 4.7 | -0.5% | -0.5 | ? | 2.7 | -5.8% | -1.5
Cc1cccc(NC(=O)c2ccccc2OCC(=O)c2ccc(F)cc2)c1 | -24.8 | 4.1% | -0.9 | 7.6% | . | -0.6% | 2.2
O=C(NCCc1ccccc1)Nc1nnc([C@@H]2C[C@H](O)[C@@H](CO)O2)s1 | . | 1.5% | -0.8 | . | . | 0.2% | .
CCCCn1nc(C(=O)OCC(=O)Nc2sccc2C(N)=O)c2ccccc2c1=O | 36.5 | 0.3% | 2.1 | 6.3% | -1.6 | . | ?
Cc1cc(-n2c(C)cc(C(=O)CSc3nnnn3-c3ccccc3)c2C)no1 | 5.3 | -0.3%[38.3 µM] | 0.8 | -2.1% | 1.6 | 6.6% | 18.4
Cc1noc(C)c1C(=O)N1CCc2ccccc2C1 | 20.4 | -1.0%[38.3 µM] | 2.4 | -5.8% | -0.1 | -3.3% | 6.7
S=C(NCc1ccccn1)NN=Cc1ccccn1 | 10.1 | -1.0% | 1.0 | . | . | -2.2% | .
O=C(CCS(=O)(=O)Cc1ccccc1F)N1CCc2ccccc2C1 | -4.4 | -1.3% | 0.0 | -2.7% | -2.8 | 1.0% | -2.7
Nc1ccc2oc(-c3ccccn3)nc2c1 | -3.2 | 0.9% | 0.2 | 3.7% | 0.6 | -5.0% | 8.0

Next compounds.
SMILES | TRPML1 inh | PINK1 expr mod | TRPML1 agonist | Sfp PPTase inh | Menin-MLL FL inh | ClpP mod | TRPV1 potentiator
Cc1ccc(NC(=O)CNc2cc(S(=O)(=O)N3CCOCC3)ccc2N2CCOCC2)cc1S(=O)(=O)N(C)C | 1.5 | 0.1% | 0.1 | . | . | -6.7% | .
CCC(C)(C)NC(=O)C(c1ccc(C)cc1)N(CC1CCCO1)C(=O)CNC(=O)c1cccs1 (configuration not stated) | -14.2 | . | 0.4 | -0.3% | 4.5 | -0.5% | -19.9
NNC(=O)c1cc2cc3ccccc3nc2s1 | -14.9 | 7.8% | 0.3 | 19.1% | 4.4 | -10.1% | 5.7
CC(C)[C@@H](C(=O)NC1CCCC1)N1C(=O)N2CCc3c([nH]c4ccccc34)[C@@]2(C)C1=O | . | 3.0% | . | 5.0% | -0.5 | -0.8% | 4.8
COc1ccccc1NC(=O)c1ccc2c(c1)OCO2 | 15.8 | 0.2% | -0.2 | 1.4% | 1.5 | . | 8.6
COc1ccc(C(=O)NCc2csc(C(C)C)n2)cc1OC1CCN(C(C)=O)CC1 | 20.1 | -1.8% | 0.9 | 21.6% | . | -2.9% | 4.6
CCOC(=O)c1c(C)[nH]c(C)c1C(=O)CSc1nc2ccccc2c(=O)n1-c1ccc(F)cc1 | 20.0 | -1.1% | 2.6 | 12.5% | 0.4 | . | 6.8
